Bioassay records as filed in PubChem.
Sfp inh – qHTS Assay for Inhibitors of Bacillus subtilis Sfp phosphopantetheinyl transferase (PPTase) | Potency, µM, for inactives: max response, negative = inhibition, most hits filed as inhibitors | Biochemical Sfp PPTase activity, qHTS | 3.5% of 310,000 active | AID 1490, 2009; active = well fitted inhibition curve with a large enough effect; inconclusive = small, poorly fitted or top-dose-only effect, or another doubt; inactive = no such curve, though single readings can be large or run the other way;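 also: the enzyme is Sfp with the accession as filed and its product quenches rhodamine fluorescence; potency is read from the fitted curve at half-maximal effect; 0% = enzyme reaction without inhibitor and -100% = no enzyme wells; top concentration of the series not given in the record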
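Fluorescence-quenching assay: 15 nM Sfp-PPTase preincubated 15 min at room temperature with compound, then 5 uM rhodamine-CoA and 12.5 uM BHQ-2-labelled YbbR peptide added. Fluorescence (ex 525/em 598 nm) read at start and after 30 min; difference gives rate.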
CtBP-E1A inh – qHTS Assay for Inhibitors of the CtBP/E1A Interaction. activity change, % (test concentration not listed). 0.49% of 340,000 active. CtBP / adenovirus E1A interaction (AlphaScreen). AlphaScreen GST-E1A/His-CtBP binding, 1536-well; active compounds read low; control for the full effect not named in the record; in the data active means activity change below about -65%; inconclusive means about -30% to -65%; inactive means above about -30%; also: % is scaled to controls: 0 for no effect and ±100 for the full control effect
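In 5 uL wells, 23 nL compound meets equimolar GST-E1A and His-CtBP (5X stock 125 nM each) for 2 h, 37 °C. Beads (5X, 50 ug/mL) then 1 h, 37 °C, dark.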
Menin MLL FP FL – qHTS Assay for Inhibitors Targeting the Menin-MLL Interaction in MLL Related Leukemias: Competition With Fluorescein Labeled MLL-derived Peptide | Fluorescence polarization, fluorescein-MLL peptide displacement from menin | FP activity change, % at 61.4 µM | 290,000 tested, under 10 active; inconclusive = falling polarisation curve, or a change in total fluorescence; inactive = total fluorescence flat and polarisation flat or rising; no compound was filed as active; the % refers to the polarisation; negative = inhibition;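 also: % of control where 0% means no effect; inhibitors lower the polarisation; unlabelled MLL peptide was the positive control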
TRPV1 potentiator – HTS Assay for Compounds that Act as Potentiators of the Vanilloid Receptor 1 | Transient receptor potential cation channel subfamily V member 1 (Homo sapiens), Q8NER1 | TRPV1-expressing cells, Fluo-8 calcium influx, capsaicin EC20 potentiation; host cell line not named in the record; control for the full effect not named in the record | potentiation, % at 8.33 µM | 0.02% of 320,000 active; active means potentiation above 80%; inconclusive means 30% to 80%; inactive means below 30%; also: 0% is about no effect
Target sequence (Q8NER1 whole entry, looked up): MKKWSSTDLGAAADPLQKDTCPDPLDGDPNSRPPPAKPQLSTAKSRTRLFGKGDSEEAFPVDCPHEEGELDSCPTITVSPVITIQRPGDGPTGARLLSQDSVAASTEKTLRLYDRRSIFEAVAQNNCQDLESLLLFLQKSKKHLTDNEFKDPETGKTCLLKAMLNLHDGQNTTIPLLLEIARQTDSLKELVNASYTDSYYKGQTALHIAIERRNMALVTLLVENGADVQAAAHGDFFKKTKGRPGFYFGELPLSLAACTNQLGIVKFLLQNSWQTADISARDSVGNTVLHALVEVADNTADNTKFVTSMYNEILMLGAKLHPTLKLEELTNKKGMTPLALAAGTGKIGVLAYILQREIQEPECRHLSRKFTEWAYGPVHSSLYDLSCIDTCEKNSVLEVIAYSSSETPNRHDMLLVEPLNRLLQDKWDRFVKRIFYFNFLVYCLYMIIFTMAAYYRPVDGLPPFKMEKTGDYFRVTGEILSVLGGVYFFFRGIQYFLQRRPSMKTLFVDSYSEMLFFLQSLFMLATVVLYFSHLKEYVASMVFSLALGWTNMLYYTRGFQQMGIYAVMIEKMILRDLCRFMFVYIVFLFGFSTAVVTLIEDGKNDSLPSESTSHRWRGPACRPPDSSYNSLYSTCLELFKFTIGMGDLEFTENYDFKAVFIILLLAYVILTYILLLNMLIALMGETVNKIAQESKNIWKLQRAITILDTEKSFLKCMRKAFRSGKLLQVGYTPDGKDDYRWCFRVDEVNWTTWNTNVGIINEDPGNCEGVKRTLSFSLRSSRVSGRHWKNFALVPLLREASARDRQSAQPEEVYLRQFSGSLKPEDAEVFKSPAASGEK
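Fluo-8 calcium influx in TRPV1-expressing cells, kinetic read (ex 480/em 520 nm). Compound added and read 3 min for agonist activity, followed by capsaicin at EC20 final and 2 min further read for enhancement.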
ClpP mod – qHTS Assay for Activators of ClpP. ATP-dependent Clp protease proteolytic subunit (Bacillus subtilis (strain 168)), P80244. purified B. subtilis ClpP, FRET peptide cleavage, 20 min. Potency, µM (top dose mostly 57.5 µM), without a hit: top-dose activity change, negative = active. 1.9% of 340,000 active. AID 651965, 2013; active = well fitted falling curve with a large enough effect; inconclusive = small, poorly fitted or top-dose-only effect; inactive = no such curve, though single readings can be large or run the other way; also: potency is read from the fitted curve at half-maximal effect; the source files actives as falling curves though it sought activators and does not explain the sign; nearly all actives have a fitted effect of over 65% in size; many hits overshoot -100%
Target sequence (P80244 whole entry, looked up): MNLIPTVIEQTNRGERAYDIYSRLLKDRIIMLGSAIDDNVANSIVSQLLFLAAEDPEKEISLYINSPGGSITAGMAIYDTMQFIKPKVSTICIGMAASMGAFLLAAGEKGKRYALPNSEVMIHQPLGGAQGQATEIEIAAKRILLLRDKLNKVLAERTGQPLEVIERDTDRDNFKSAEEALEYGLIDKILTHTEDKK
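Purified B. subtilis ClpP, 10 microg/mL final in Tris/HCl pH8 with KCl, BSA, glycerol and Tween-20, cleaved an Abz/nitrotyrosine-quenched decapeptide. Fluorescence (ex 320, em 430) was read at 0 and 20 min at room temperature. Delta was normalized to 5.8 microM ADEP and DMSO/no-enzyme controls.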
gsp ag – qHTS for Agonist of gsp, the Etiologic Mutation Responsible for Fibrous Dysplasia/McCune-Albright Syndrome: qHTS; AID 624287, 2012; Potency, µM (top dose mostly 76.9 µM), without a hit: at the highest dose activation (cAMP increase), actives largely listed as activators; gsp mutant cells, cAMP HTRF, 30 min; control for the full effect not named in the record; 0.13% of 340,000 active; active = well fitted activation curve with a large enough effect; inconclusive = small, poorly fitted or top-dose-only effect, or another doubt; inactive = no such curve, though single readings can be large or run the other way; cell line not stated here;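 also: phosphodiesterase inhibitor Ro 20-1724 added with compounds to block cAMP breakdown; potency is read from the fitted curve at half-maximal effect; nearly all actives have a fitted effect of over 60% in size; about a fifth of the inactives were tested at one dose only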
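Cells stably selected in G418 were plated at 2000/well, grown 16-24 hr, then given compounds in DMSO with the PDE inhibitor […] (300 uM solution added) for 30 min at 37C; cAMP was read by HTRF.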
gsp antag – qHTS for Antagonists of gsp, the Etiologic Mutation Responsible for Fibrous Dysplasia/McCune-Albright Syndrome: qHTS | 0.4% of 340,000 active | Potency, µM (series often up to 76.9 µM), for the others: at the top dose activity change, negative = inhibition, hits mostly inhibitors | gsp-mutant cells, cAMP HTRF, 30 min; control for the full effect not named in the record; active = falling curve of any shape with a large fitted effect; inconclusive = falling curve, mostly with a smaller effect; inactive = flat or rising curve; cell line not stated here;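 also: intracellular cAMP measured with PDE inhibitor Ro 20-1724 present during compound exposure; potency is read from the fitted curve at half-maximal effect; % is scaled to controls: 0 for no effect and ±100 for the full control effect; nearly all actives have a fitted effect of over 65% in size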
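Measurement of cellular cAMP by homogeneous time-resolved fluorescence following a 30 min compound exposure at 37C. The PDE inhibitor […] was present throughout; the assay buffer was DPBS with 0.05% BSA and 0.005% Tween 20.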
Numbers without * were called inactive; u = inconclusive; x = no result given; & = joins results of further samples; ! = repeats disagree; [ ] = remark or other dose.

SMILES	Sfp inh	CtBP-E1A inh	Menin MLL FP FL	TRPV1 potentiator	ClpP mod	gsp ag	gsp antag
CN(Cc1ccc(F)cc1)C(=O)c1cccc(OC2CCN(C3CCCC3)CC2)c1	9%	1	-1.9	2	0.3%	-14%	11%
C[C@@H]1CN([C@H](C)CO)C(=O)CCCn2nncc2CO[C@H]1CN(C)Cc1ccc(-c2ccccc2)cc1	x	2	x	x	-0.4%	u	x
Cc1cc(C)cc(NC(=O)CN2CCCN(S(=O)(=O)c3ccc(Br)s3)CC2)c1	-6%	-2	1.8	4	-0.1%	13%	-8%
COc1cc([C@H]2[C@@H]3CCCC[C@]3(O)CCN2CC(=O)Nc2ccc(C)cc2)ccc1O	3%	-1	5.8	-9	-1.3%	-5%	3%
CCOc1ccc(C(=O)N2CCN(CCc3ccccc3)CC2)cc1OCC	-4%	10	-2.3	0	-9.8%	4%[15.4 µM]	5%
Cc1cc(C)n(-c2ccc(C(=O)Nc3cccc(S(=O)(=O)N(C)C)c3)cc2)n1	9%	u	0.8	0	1.5%	-1%	u
Cc1ccccc1Oc1cc(NC(=O)Cn2cnc([N+](=O)[O-])c2)cc([N+](=O)[O-])c1	-4%	x	10	-10	-0.2%	18%	-4%
O=C(O)C1CC=CCC1C(=O)Nc1ccccc1C(=O)N1CCN(c2ccc(Cl)cc2)CC1 (stereo not drawn)	29%	x	2.4	18	x	-7%[15.4 µM]	6%
Cc1ccc(OC(C)C(=O)Nc2ccc(S(=O)(=O)N3CCOCC3)cc2)cc1 (stereo not drawn)	-2%	4	x	-14	-0.1%	37%[15.4 µM]	-8%
CC(=O)Nc1ccc(NC(=O)C2CCCN2C(=O)Nc2cccc(F)c2)cc1 (stereo not drawn)	16%	-24	3.8	0	x	1%[15.4 µM]	8%
COC(=O)c1[nH]c2cc(OC)ccc2c1NC(=O)c1c(F)cccc1F	-7%	x	5.5	-20	3.9%	3%	9%
CCOC(=O)N1CCN(C(=O)COc2cccc3c2CCN(Cc2cccc(C)c2)C3=O)CC1	-2%	-3	3.5	2	-5.0%	-1%	-23%
CC(C)(C)c1ccc(C(=O)NNC(=O)CNC(=O)c2cccs2)cc1	x	2	x	x	1.2%	-14%	29%
Cc1ccc(C)c(S(=O)(=O)N2CCN(C(=O)CCCc3c[nH]c4ccccc34)CC2)c1	x	-2	x	-5	-2.6%	0%[15.4 µM]	-12%
COc1ccc2[nH]c(C)c(CCN(Cc3cccs3)C(=S)Nc3cccc(F)c3)c2c1	40µM*	1	u	6	-2.8%	u	-19%
O=C(N/N=C/c1cccnc1)c1ccccc1Br	8%	2	-2.7	4	0.2%	-9%[15.4 µM]	4%
Cc1nnc(SCC(C)C)[nH]c1=O	4%	7	-2.0	9	-1.2%	10%	8%
Cc1nc2nc(C)c(CCC(=O)NC(C)c3ccc4c(c3)OCCO4)c(C)n2n1 (stereo not drawn)	9%	1	-1.8	-3	-1.0%	19%	11%
O=C(CSC1=NS(=O)(=O)c2cc(F)ccc2N1)Nc1ccc(F)cc1	x	-5	x	-13	-2.5%	4%	-22%
CCc1c(C)n2nc(C)cc2[nH]c1=O	-1%	0	-0.5	6	13µM*	-30%[inhibitor]	3%
CS(=O)(=O)N(CC(=O)NCCSCc1ccccc1Cl)c1ccc(F)cc1	u	x	4.3	7	-9.8%	-12%	-2%
COc1cccc(NC(=O)C2CC(=O)N/C(=N/NC(=O)c3ccc(C)cc3)S2)c1 (stereo not drawn)	32%[activator]	u	-1.8	3	-12%	-1%[15.4 µM]	16%
COc1cc(C(=O)Nc2ccc(S(=O)(=O)Nc3cc(C)nc(C)n3)cc2)cc(OC)c1OC	0%	-4	4.4	-4	1.2%	7%[15.4 µM]	-2%
COC(CNC(=O)c1ccc(N2CCc3ccccc32)c([N+](=O)[O-])c1)OC	u	3	-1.0	-21	0.4%	-26%	u
O=C(NCCCNCc1ccccc1)c1ccccn1	2%	0&0	5.4	-5	-2.7%&-0.1%	18%	-12%&1%
Additional results:
SMILES	Sfp inh	CtBP-E1A inh	Menin MLL FP FL	TRPV1 potentiator	ClpP mod	gsp ag	gsp antag
COc1ccc(S(=O)(=O)N(C)C)cc1NC(=O)CCNC(=O)c1ccco1	6%	1	-6.0	5	x	25%[15.4 µM]	-26%
O=C(COc1ccccc1)NCC1COc2ccccc2O1 (stereo not drawn)	15%	7	-0.4	-2	x	u	11%
CCOc1cc(C(=O)N=c2sccn2C)ccc1OC(F)F	10%	2	x	0	-3.3%	-28%	-4%
CC(=O)C1=C(O)C(=O)N(CCc2ccccc2)C1c1ccccc1[N+](=O)[O-] (stereo not drawn)	2%	0	-1.8	-8	-0.2%	-3%[15.4 µM]	4%
COC(=O)/C(=N/Nc1cccc(C)c1)N1CCCc2ccccc21	-7%	-5	-3.0	-4	8.9%	-6%	5%
CNC(=O)c1cc(Oc2ccc(NC(=O)Nc3ccc(Cl)c(C(F)(F)F)c3)cc2)ccn1	-3%	1	-4.5	-8	-12%&-6.8%	x	u
O=c1[nH][nH]c2cc([N+](=O)[O-])ccc12	x	u	x	x	x	7%	-25%
O=C1CN(C(=O)c2cccc([N+](=O)[O-])c2)CC(=O)N1	14%	6	-2.9	u	x	-38%	11%
CCN1C(=O)/C(=c2\s/c(=C3\Sc4ccccc4N3C)c(=O)n2C)N(C)C1=S	1%	x	u	1	x	x	x
Cn1c(=O)c2c(ncn2CC(O)CNc2ccc(Cl)cc2)n(C)c1=O (stereo not drawn)	19%	6	1.5	-1	0.1%	u	-7%
COc1ccc(C(=O)NCc2ccccn2)cc1	23%	4	2.9	-6	-1.6%	14%	5%
O=C(Nc1ccc(-c2nnc3n2CCCCC3)cc1)c1cnccn1	10%	-9	2.8	-16	-2.7%	6%[15.4 µM]	-1%
COc1cc(NC(=O)COc2ccc(-n3ccnc3)cc2)cc(OC)c1	13%	-1	-0.3	16	x	7%[15.4 µM]	-9%
O=C1Nc2ccc(Br)cc2/C1=N\N=C\C1=C(N2CCOCC2)C(=C/c2ccccc2)/CC1	x	-10	x	x	x	-8%	-4%
COc1ccccc1-n1nnnc1SCC(=O)Nc1oc(C)c2c(C)n[nH]c(=O)c12	x	2	x	30	0.9%	0%	21%
CCc1c(C)nc2ccc(Br)cc2c1SCCC#N	0%	9	9.9	-10	x	6%[15.4 µM]	-7%
CCC(C)[C@@H](C(=O)Nc1ccc(OC)c(OC)c1)N1Cc2ccccc2C1=O (stereo partly drawn)	-14%	-9	-1.2	-26	-0.5%	16%	-6%
COc1cccc(/C=N/NC(=O)c2nnn(-c3nonc3N)c2C(C)C)c1	9%	0	-5.2	-13	-11%	0%	u
Cc1cc(C)cc(OC(=O)CCN2C(=O)C3C4C=CC(C5CC45)C3C2=O)c1 (stereo not drawn)	5%	3	0.6	-6	x	19%[15.4 µM]	1%
O=C1[C@H]2[C@@H](c3ccc(C(F)(F)F)cc3)N[C@]3(CCCN(Cc4ccc(F)cc4)C3=O)[C@H]2C(=O)N1Cc1ccccc1	x	3	x	x	1.2%	-1%	x
COc1cccc(-c2nn(C)c3sc(C(=O)NCc4ccc(C)cc4)cc23)c1	22%	-19	1.9	21	20µM*!	13%	-24%
COC(=O)N/N=C(\C)c1ccc2ccccc2c1OC(F)F	-1%	x	0.3	7	-0.9%	-35%[inhibitor]	-2%
NC1=NC2(CCCCC2)N(c2cccc(Cl)c2)C(N)=N1	14%	5	-0.9	1	-0.8%	-2%	-10%
CC1(C)Cc2c(sc3c2c(=O)n(-c2cccc(Cl)c2)c(=O)n3CC(N)=O)CO1	21%	x	-0.3	3	-3.1%	-7%	-4%
COc1ccc(-c2nnc3ccc(SC)nn23)cc1	-3%	-5	5.1	-4	1.5%	u	4%
Following part.
SMILES	Sfp inh	CtBP-E1A inh	Menin MLL FP FL	TRPV1 potentiator	ClpP mod	gsp ag	gsp antag
COc1ccc(CC(=O)Oc2ccccc2C)cc1S(=O)(=O)N1CCOCC1	x	4	x	-12	-1.5%	-7%	-10%
COc1ccc(-c2n[nH]c(=S)n2C2CCCCC2)cc1	14%	-2	3.4	5	-1.3%	u	-8%
CCc1noc(C)c1C(=O)OCC(=O)c1ccccc1OC	-20%	14	0.7	-20	-6.1%	16%	-8%
CCN(C(=O)CSc1nnc(C)n1-c1ccccc1)C1CCS(=O)(=O)C1 (stereo not drawn)	12%	1	-0.7	-3	x	-7%[15.4 µM]	18%
N/C(=N\OC(=O)c1ccc2c(c1)OCO2)c1ccncc1	-8%	-3	1.3	-17	0.6%	-26%	13%
CCOC(=O)C1(Cc2cccc(OC)c2)CCCN(S(=O)(=O)CC)C1 (stereo not drawn)	-1%	x	2.5	-3	2.3%	28%	3%
CC(C)CN(C(=O)CSc1ncnc2sccc12)C1CCS(=O)(=O)C1 (stereo not drawn)	x	0	x	-5	-3.2%	6%	-8%
COc1ccc(NC(=O)c2ccc(-c3ccc(C(C)=O)cc3)o2)cn1	x	x	x	6	4.4%	-29%	-5%
CC(C)Cn1c(=O)c(CCC(=O)Nc2ccc(N3CCOCC3)cc2)nc2cc(Cl)ccc21	10%	-2	3.8	-16	-3.8%	6%	-4%
O=C(NCCNC(=O)c1ccccc1[N+](=O)[O-])c1ccccc1[N+](=O)[O-]	x	-4	x	x	-0.9%	0%[15.4 µM]	4%
COc1ccc(CC(=O)NCc2nn(-c3ccccc3)nc2C)cc1OC	14%	x	0.4	-23	-5.3%	8%	5%
CCOC(=O)CSc1nc2sccc2c(=O)[nH]1	15%	6	4.5	6	0.0%	-19%	-7%
CCS(=O)(=O)Nc1cc(-c2nc3cccnc3s2)ccc1C	-3%	0	0.0	13	u	u	2%
